High-throughput results from PubChem.
YjeE inh = inhibitors of E. coli YjeE (TsaE). P0AF67. purified YjeE, fluorescence polarisation of a bound ADP probe. Potency, µM. actives 0.05% (n = 71,000); active = well fitted falling curve; inconclusive = weaker or top-dose-only fall, or a rising curve; inactive = flat or poorly fitted curve;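 note: top concentration of the series not given in the record; excess ADP was the control for the full effect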
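Fluorescence polarization of a BODIPY Texas Red–ADP probe (2 uM) bound to purified YjeE (10 uM) was read after 15 min room-temperature incubation with compounds. Loss of polarization marks inhibitors; ADP serves as titrated control.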
PK Bst = alters activity of Bacillus stearothermophilus pyruvate kinase; partly purified Bacillus stearothermophilus pyruvate kinase, luminescence ATP production; ribose 5-phosphate activator present at AC10; Potency, µM; actives 1.2% (n = 51,000); in the data active means potency below about 11 µM; inconclusive means mostly about 12 µM to 25 µM; inactive means weaker than that;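 the screen sought inhibitors and activators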;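 note: potency is the fitted concentration of half-maximal effect; scaled between full activation by ribose 5 phosphate and full inhibition by luteolin; about four in five hits inhibit and the cells do not say which; series up to 57 µM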
Active calls of the source: *; i = inactive; ? = inconclusive; / = not tested or not shown; & = joins results of further samples.

Below each compound – YjeE inh	PK Bst
CC(=O)OCCNC(=O)c1cccnc1
 : i	/
CC(=O)Nc1ccc(NC(=O)N2CCCCC2)cc1
 : i	>57
O=C1c2oc3ccc(F)cc3c(=O)c2C(c2ccncc2)N1CCN1CCOCC1 (centres undefined)
 : i	/
CCNc1ncc2nc(-c3cc(F)cc(F)c3)c(=O)n(CCc3ccccc3)c2n1
 : i	/
Cc1sc2nc(SCC(=O)NCc3ccco3)n(-c3ccccc3)c(=O)c2c1C
 : i	>57
CCc1cc(=O)oc2c(CN3CCCC3)c(O)c(Cl)cc12
 : /	>25.6
CCN(CC)CCCN(Cc1cc2cc3c(cc2[nH]c1=O)OCCO3)C(=O)Nc1ccccc1
 : i	>57
CC(=O)N1c2ccccc2C(=O)OC1c1cccnc1 (centres undefined)
 : i	>57
CCc1ccccc1NC(=O)N[C@@H](C)C(=O)OC
 : i	>57
Cc1c(C(=O)NCCCN2CCOCC2)sc2ncnc(N3CCN(c4ccccc4)CC3)c12
 : i	>57
COc1ccc(/C(O)=C2/C(=O)C(=O)N(Cc3cccnc3)C2c2ccccn2)cc1 (centres undefined)
 : i	>57
CCCS(=O)(=O)N1CCCC(C(=O)NCCCN(CC)c2cccc(C)c2)C1 (centres undefined)
 : i	>57
Cc1cc(NC(=O)C23CCC(C)(C(=O)O2)C3(C)C)no1 (centres undefined)
 : i	>57
C=CCn1c(-c2ccccc2)n[nH]c1=S
 : /	>25.6
O=C(Nc1ccc(CN2CCCCC2)cc1)c1ccc(Br)o1
 : i	>57
CCCc1nn(C)c2c1C(c1ccncc1)C(C#N)=C(N)O2 (centres undefined)
 : i	>57
COc1ccc(-c2n[nH]c(C)c2-c2ccc(Cl)cc2)c(O)c1OC
 : i	>57
O=C(c1ccccc1)c1c[nH]c2cc3c(cc2c1=O)OCO3
 : i	>57
CC1CN(S(=O)(=O)c2cccc(-c3cn4cccnc4n3)c2)CC(C)O1 (centres undefined)
 : i	>57
Cc1ccc(C)c(N2CCN(C(=O)CCCCn3c(=O)[nH]c4ccccc4c3=O)CC2)c1
 : i	>57
COc1ccc(N2CCN(CCNC(=O)C3CC(=O)N(C4CCCC4)C3)CC2)cc1 (centres undefined)
 : i	>57
CCOc1cccc(N)c1
 : i	/
N#CNC1=NCN(CCc2ccccc2)CN1
 : i	>57
N#C/C(C(=O)N1CCOCC1)=c1\s/c(=C/c2ccncc2)c(=O)n1-c1ccccc1
 : i	>57
O=S(=O)(NCc1ccc(Cl)cc1)c1cnc[nH]1
 : i	>57
Cc1nc(N2CCN(Cc3ccccc3)CC2)nc2c1C(=O)CC(c1ccco1)C2 (centres undefined)
 : i	>57
COc1ccc(N2CC(C(=O)Nc3ccc(S(=O)(=O)Nc4nc(C)cc(C)n4)cc3)CC2=O)cc1 (centres undefined)
 : i	/
COCCNC(=O)c1cc2c(=O)n3cccc(C)c3nc2n1C
 : i	/
Cn1c(=O)c(-c2cc(F)cc(F)c2)nc2cnc(N3CCOCC3)nc21
 : i	/
COc1ccc(CNC(=O)c2cccc(N(C)C)c2)cc1
 : i	>57

Already shown: an excerpt of the list.
Below each compound – YjeE inh	PK Bst
CC(=O)OCCNC(=O)c1cccnc1
 : i	/
CC(=O)Nc1ccc(NC(=O)N2CCCCC2)cc1
 : i	>57
O=C1c2oc3ccc(F)cc3c(=O)c2C(c2ccncc2)N1CCN1CCOCC1 (centres undefined)
 : i	/

Following part:
Below each compound – YjeE inh	PK Bst
COc1ccc(-c2cc(C(=O)N(C)Cc3ccccc3)no2)cc1OC
 : i	/
CCc1ccccc1NC(=O)CSc1nnc([C@@H](NC(=O)OC(C)(C)C)C(C)CC)o1 (some centres undefined)
 : i	>57
CCCCN1CCC(n2c(=O)[nH]c3ccccc32)CC1
 : i	/
Cc1cc(C(=O)Nc2sc3c(c2C#N)CCC(C)C3)cs1 (centres undefined)
 : i	>57
ON(CCc1ccncc1)Cc1ccccc1
 : i	/
O=c1nc2n(c3ncccc13)CCC2
 : i	>57
Nc1nnc(-c2ccco2)s1
 : i	/
CN1CC[C@@]2(CCCN(C(=O)c3cc(C(F)(F)F)cc(C(F)(F)F)c3)C2)C1
 : i	/
COc1ccc2nc(NC(=O)Cn3cnc4c(=O)n(C)c(=O)n(C)c43)sc2c1
 : i	>57
COC(=O)[C@@H]1O[C@@H](SCCN)[C@@H](O)[C@H](O)[C@H]1O
 : i	/
C=CCN1C(=CCO)[C@H]2C[C@H]3[C@@H]1CC[C@@]31c3ccccc3N3C=C4[C@@H]5N(/C=C/2[C@H]31)c1ccccc1[C@]51CC[C@H]2[C@H]1C[C@@H]4/C(=C/CO)N2CC=C
 : i	/
Cc1ccc(NC(=O)CN2C(=O)NC(Cc3ccccc3)C2=O)cc1 (centres undefined)
 : i	>57
O=C(Cn1cnc2ccccc2c1=O)NCCC(=O)N1CCN(c2ccccc2)CC1
 : i	>57
CC(C)(C)NC(=O)C(c1cccs1)N(CC1CCCO1)C(=O)Cn1nnc(-c2cccs2)n1 (centres undefined)
 : i	>57
COc1c(F)c(F)c(-c2csc(N)n2)c(F)c1F
 : i	>57
CC(C)c1nc2oc3c(N4CCNCC4)ncnc3c2c2c1CCC2
 : i	>57
O=C1c2ccccc2NC2(CCCCC2)N1c1ccc(O)cc1
 : i	>57
CN1CCN(C(=O)c2ccccc2NC(=O)CCN2C(=O)c3ccccc3C2=O)CC1
 : i	>57
O=C(c1ccccc1)c1ccc(OC(=O)N2CCCC2)cc1
 : i	>57
COc1ccc(OC)c(CNC(=O)CCN2C(=O)COc3ccccc32)c1
 : i	>57
Cc1onc(-c2ccccc2)c1C(=O)NCCc1c[nH]c2ccccc12
 : i	>57
COC(=O)c1c(NC(=O)c2ccco2)sc(C(=O)N2CCCC2)c1C
 : i	>57
CC(C)CC(=O)Nc1ccc(F)c(Cl)c1
 : i	/
CC1(C)OC(=O)CC1C(=O)NCc1ccccc1 (centres undefined)
 : i	>57
CC(C)C(OC(=O)c1cc2sccc2n1C)C(=O)NCC1CCCO1 (centres undefined)
 : i	>57
Cc1cnc(NC(=O)C2=C(O)c3ccccc3S(=O)(=O)N2C)s1
 : i	>11.4
O=C(O)CCS(=O)(=O)c1cccc2cccnc12
 : i	i
Cc1cc2ccccc2nc1SCC(=O)N1CCCC1
 : i	>57
COc1ccc(CN=CC2=C(O)CC(C)(C)CC2=O)cc1
 : i	/
COc1ccc(NC(=O)CSc2nnc(Cn3c(=O)sc4ccccc43)n2C)cc1OC
 : i	/
Cc1cc(C)nc(NC2=NCCN2C(=O)NC2CCCCC2)n1
 : i	>57
CCCC(=O)C1=C(SCC)CC(C)(C)C(C(=O)OC)C1=O (centres undefined)
 : i	/
Cc1ccccc1-c1nn2c(-c3ccccc3)nnc2s1
 : /	?
Cc1cccc(-n2c(SCC(=O)Nc3ccc4c(c3)OCO4)nnc2-c2ccoc2C)c1
 : i	>57
Cc1ccc(S(=O)(=O)N2CCC(C(=O)N[C@@H](Cc3ccccc3)C(=O)O)CC2)cc1
 : i	>57
Cc1ccc(S(=O)(=O)c2nc(C)oc2NCc2ccccc2)cc1
 : i	>57
C=CCn1c(SCC(=O)c2cccs2)nnc1-c1cccc(OC)c1
 : i	>57
CCOC(=O)C1CCN(C(=O)CSc2nnc(-c3ccco3)n2-c2ccccc2)CC1
 : i	>57
O=C(OCC(=O)c1ccc[nH]1)c1ccc(S(=O)(=O)N2CCCCC2)cc1
 : i	>57
O=C(COc1ccccc1Br)NCc1ccco1
 : i	/
O=C(Nc1cnccn1)c1csc2ccccc12
 : i	>57
Cc1cc(NC(=O)CSc2nc3c(c(=O)n2Cc2ccccc2)SC(C)C3)no1 (centres undefined)
 : i	/
O=C(Nn1cnnc1)c1ccc(F)c(S(=O)(=O)N2CCCCC2)c1
 : i	>57
CC1CN(S(=O)(=O)c2ccc(-c3nc4ccccc4s3)cc2)CC(C)O1 (centres undefined)
 : i	>57
O=C(Nn1c(-c2ccccc2)nc2ccccc2c1=O)C1CCC1
 : i	>57
COc1ccc(CCNC(=O)C2CC(=O)N(c3ccc(F)cc3)C2)cc1OC (centres undefined)
 : i	/
COc1ccc(NC(=O)NCc2cccn2C)c(OC)c1
 : i	>57
N/C(=N/O)c1nc(N2CCCC2)nc(N(c2ccccc2)c2ccccc2)n1
 : i	>57
C=CCOc1ccccc1CN1CCSCC1
 : i	/
CC(Oc1ccc2oc(-c3ccccc3)c(C(=O)O)c2c1)C(=O)O (centres undefined)
 : i	/
CCCC(=O)Nc1cc(Cl)ccc1N1CCN(C(=O)CC)CC1
 : i	>57
Cc1cccn2cc(CNC(=O)C3CCCCC3)nc12
 : i	>57
CCOc1ccc(OCC(=O)c2c(O)c3ccccc3oc2=O)cc1
 : i	>57
CC(C)N1C(=O)CCC1C(=O)N1CCCc2ccccc21 (centres undefined)
 : i	>57
COCCn1c(-c2ccccc2)nc(=S)c2c1CC(C)(C)OC2
 : i	>57
O=C(COC(=O)c1ccccn1)c1ccc(Br)cc1
 : i	/
COc1ccc(-c2noc(-c3cc(C)cc(C)c3)n2)cc1OC
 : i	/
O=C(N1CCN(Cc2ccc3c(c2)OCO3)CC1)C12CC3CC(CC(C3)C1)C2
 : i	>57
Cc1ccc(C(=O)O[C@@H](C(=O)O)[C@@H](OC(=O)c2ccc(C)cc2)C(=O)O)cc1 (tested in a mixture with another compound)
 : i	/
O=C(CCN1CCN(c2ccccc2)CC1)Nc1ccccc1F
 : i	>57

Entries of single compounds, looked up by structure:
Shown for O=C(N1CCN(Cc2ccc3c(c2)OCO3)CC1)C12CC3CC(CC(C3)C1)C2 → YjeE inh = i; PK Bst = >57
Shown for O=C(Nn1c(-c2ccccc2)nc2ccccc2c1=O)C1CCC1 → YjeE inh = i; PK Bst = >57

New compounds follow.
Below each compound – YjeE inh	PK Bst
O=C(NCCN1CCN(c2cccc(Cl)c2)CC1)C1CCCN(S(=O)(=O)c2cnc[nH]2)C1 (centres undefined)
 : i	/
CC(C)(C)c1cn(-c2ccccc2)c(=S)[nH]1
 : i	>57
CC(=O)c1cccc(NC(=O)c2ccc(S(=O)(=O)N3CCCCC3)cc2)c1
 : i	>57
Brc1ccc(C2=Nn3c(nnc3-c3n[nH]c4c3CCC4)SC2)cc1
 : i	>57
CCn1c(SCC(=O)Nc2ccccc2OC)nnc1-c1cnccn1
 : i	>57
CC(=O)C1=C(O)C(=O)N(Cc2ccccc2)C1c1ccco1 (centres undefined)
 : i	>57
c1ccc(N2CCOCC2)c(Nc2nc3ccccc3n3cnnc23)c1
 : i	/
O=C(CN1CCN(c2cccc(Cl)c2)CC1)N1CCCC1
 : i	>57
C=CCSc1nc2nc(C)cc(C)n2n1
 : i	>57
CCOC(=O)c1cnc(Nc2ccc(OCC)cc2)nc1C
 : i	/
CC1(C)CC(=O)C2=C(C1)NC(Nc1nc3ccccc3o1)=NC21CCCC1
 : i	>57
Cc1cccc(OCC(=O)N2CCC(N3CCOCC3)CC2)c1
 : /	>25.6
O=C(NCc1cccnc1)NC1(C(F)(F)F)Oc2ccccc2O1
 : i	>57
O=C(c1cnccn1)N1CCC[C@@]2(CCN(c3ccccc3)C2)C1
 : i	/
CC(=O)OC1CC(C)N(C(=O)c2ccccc2)c2ccc(C)cc21 (centres undefined)
 : i	>57
CCOC(=O)C1=C(C)NC(=O)NC1C (centres undefined)
 : i	>57&>57
CC12CCC(=O)N1c1c(sc3nc(N4CCOCC4)c4c(c13)CCCC4)C(=O)N2 (centres undefined)
 : /	>25.6
O=C(Nc1cccc(-c2nc3ccccc3[nH]2)c1)c1cccc(NC(=O)c2ccco2)c1
 : i	>57
COc1ccc(-c2nc3cnc(N4CCOCC4)nc3n(C3CC3)c2=O)cc1
 : i	/
Cc1cccc(NC(=O)Nc2cccc(F)c2)n1
 : i	/
O=S(=O)(c1ccc(F)cc1)N1CCN(CC(O)COCc2cccs2)CC1 (centres undefined)
 : i	>57
CC1(C)CC(=O)C2=C(C1)OC(N)=C(C#N)C21C(=O)N2CCCc3cccc1c32 (centres undefined)
 : i	>57
COCCn1cc(C(=O)N2CCN(C)CC2)c2c3ccccc3n(C)c2c1=O
 : i	>57
Cc1cc(C)cc(-n2nnc(C(=O)NCc3ccc4c(c3)OCO4)c2N)c1
 : i	>57
COC(=O)c1ccccc1NC(=O)CSc1nc(N)cc(N)n1
 : i	/
CCOc1ccccc1OCC(=O)Nc1ccc(S(=O)(=O)Nc2ncccn2)cc1
 : i	>57
COc1ccccc1-c1cncnc1NCc1cnc(C)cn1
 : i	/
CCCCN(c1ccccc1)c1ncnc2nc[nH]c12
 : i	/
CC1(C)CC(=O)c2cnc(NC(=O)C3CCCC3)nc2C1
 : i	/
Cc1csc(CCc2nc(C)cs2)n1
 : i	>57
O=C(Nc1ccc2c(c1)OCCO2)c1ccc(Br)o1
 : /	?
CCOc1ccc2nc(NC(=O)CSc3nc4cccnc4n3C)sc2c1
 : i	>57
COc1ccc(S(=O)(=O)NCC(=O)N(CC(=O)NCC2CCCO2)c2cc(C)ccc2C)cc1 (centres undefined)
 : i	>57
CC(=O)Nc1ccc(NC(=O)c2ccco2)cc1
 : i	/
COc1cccc(CNCCSc2nnnn2C)c1
 : i	>57
COc1ccc(N2CC(C)Cn3c2nc2c3c(=O)n(Cc3ccc(F)cc3)c(=O)n2C)c(OC)c1 (centres undefined)
 : i	>57

Only part of the results is shown; the hit share may differ from the screen's.
